Source: PubChem (Broad Institute)
Yeast UUG start = modulators of yeast start codon fidelity, primary screen, whole organism, S. cerevisiae, single point, plate reader. S. cerevisiae UUG-firefly luciferase reporter, luminescence/redox ratio. activity score, % at 18.7 µM. hit rate 0.13% among 350,000. AID 602363, 2012;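 active = replicate mean at a twofold rise or more, about +100% in these data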;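 note: firefly luciferase made from a UUG start codon reports start codon fidelity; reporter light over untreated wells divided by growth signal over untreated wells; some hits fall short of that in this replicate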
HIV Env fusion = inhibitors of HIV-1 Env-driven cell-cell fusion, primary screen, HeLa-JRFL effector, CEM21 target cells, luciferase; inhibition, % at 12.3 µM; hit rate 1.1% among 360,000; AID 651610, 2012;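 active = mean replicate inhibition score of at least 50 and every replicate individually at or above 50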;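 note: 0% = plate neutral controls and 100% = maraviroc near 300 nM; one replicate is shown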
The depositor's hits bear a star; [ ] = dose if it differs, or a comment.

SMILES | Yeast UUG start | HIV Env fusion
COc1ccc(NC(=O)Nc2cccc3c2O[C@@H](CN(C)C(=O)Nc2ccc(C(F)(F)F)cc2)[C@H](C)CN([C@@H](C)CO)C3=O)cc1 | 42 | -13[16.7 µM]
C[C@H]1CN([C@@H](C)CO)C(=O)Cc2cc(NC(=O)NC3CCCCC3)ccc2O[C@H]1CN(C)C(=O)NC1CCCCC1 | 1 | -15[16.7 µM]
C[C@@H](O)C#Cc1cnc2c(c1)C(=O)N([C@@H](C)CO)C[C@H](C)[C@H](CN(C)C(=O)CC1CC1)O2 | -3 | -8[16.7 µM]
C/C=C/c1ccc2c(c1)O[C@H](CN(C)C(=O)c1ccc(F)cc1)[C@H](C)CN([C@@H](C)CO)S2(=O)=O | 15 | -16[16.7 µM]
COc1ccc(NC(=O)N(C)C[C@H]2Oc3ncc(C#C[C@H](C)O)cc3C(=O)N([C@H](C)CO)C[C@H]2C)cc1 | -16 | 0[16.7 µM]
COc1cccc(S(=O)(=O)N(C)C[C@@H]2Oc3cc(C4=CCCC4)ccc3S(=O)(=O)N([C@@H](C)CO)C[C@@H]2C)c1 | -12 | -3[16.7 µM]
Cc1noc(C)c1S(=O)(=O)Nc1ccc2c(c1)C(=O)N([C@H](C)CO)C[C@@H](C)[C@H](CN(C)C(=O)Nc1ccccc1)O2 | 0 | -54[16.7 µM]
CCCNC(=O)N(C)C[C@@H]1Oc2ncc(C#C[C@H](C)O)cc2C(=O)N([C@H](C)CO)C[C@H]1C | 29 | -10[16.7 µM]
CCCNC(=O)N1[C@H](C#N)[C@@H](c2ccc(C3=CCCC3)cc2)[C@H]1CO | 52 | 5[16.7 µM]
C[C@H]1CN([C@@H](C)CO)C(=O)c2cc(NC(=O)Nc3ccc(F)cc3)ccc2O[C@@H]1CN(C)C(=O)NC1CCCCC1 | -12 | -9[16.7 µM]
CCCC#Cc1cnc2c(c1)C(=O)N([C@@H](C)CO)C[C@@H](C)[C@@H](CN(C)C(=O)Nc1ccccc1F)O2 | 9 | -2[16.7 µM]
C[C@@H]1CCCCO[C@H](CN(C)S(=O)(=O)c2ccc(F)cc2)[C@H](C)CN([C@@H](C)CO)C(=O)c2cc(NC(=O)Cc3ccccc3)ccc2O1 | -10 | -7[16.7 µM]
C[C@@H]1CN([C@H](C)CO)C(=O)c2cc(C3=CCCCC3)cnc2O[C@@H]1CN(C)C(=O)c1ccncc1 | -9 | 2[16.7 µM]
C[C@H]1CCCCO[C@@H](CN(C)C(=O)CCC(F)(F)F)[C@@H](C)CN([C@@H](C)CO)C(=O)c2cc(NC(=O)c3ccccc3)ccc2O1 | 21 | 6[16.7 µM]
C[C@@H]1CCCCO[C@H](CN(C)S(=O)(=O)c2ccc(Cl)cc2)[C@@H](C)CN([C@H](C)CO)C(=O)c2cc(NC(=O)Nc3ccc(F)cc3)ccc2O1 | -1 | 16[16.7 µM]
CCCN(C)C[C@H]1OCCCC[C@H](C)Oc2ccc(NC(=O)CCC(F)(F)F)cc2C(=O)N([C@H](C)CO)C[C@H]1C | 12 | 14[16.7 µM]
Cc1cccc(CN(C)C[C@@H]2Oc3ncc(-c4cccc(F)c4)cc3C(=O)N([C@H](C)CO)C[C@@H]2C)c1 | 4 | 34[16.7 µM]
Cc1noc(C)c1S(=O)(=O)Nc1ccc2c(c1)C(=O)N([C@@H](C)CO)C[C@@H](C)[C@H](CN(C)Cc1ccncc1)OCCCC[C@H](C)O2 | 1 | -12[16.7 µM]
O=C(C[C@H]1C=C[C@H](NC(=O)Nc2ccc3c(c2)OCO3)[C@H](CO)O1)NCc1ccccc1 | -6 | 8[16.7 µM]
Cc1noc(C)c1NC(=O)N(C)C[C@H]1Oc2ccc(NC(=O)Nc3ccc4c(c3)OCO4)cc2CC(=O)N([C@H](C)CO)C[C@@H]1C | -2 | 6[16.7 µM]
CC(C)C#Cc1cnc2c(c1)C(=O)N([C@H](C)CO)C[C@H](C)[C@H](CN(C)Cc1ccccn1)O2 | -6 | -3[16.7 µM]
C[C@@H]1CN([C@@H](C)CO)S(=O)(=O)c2ccc(-c3cncnc3)cc2O[C@@H]1CN(C)C(=O)C1CC1 | -7 | -4[16.7 µM]
CCCC#Cc1ccc([C@@H]2[C@H](C#N)N(C(=O)CN3CCOCC3)[C@H]2CO)cc1 | -4 | -15[16.7 µM]
Cc1noc(C)c1S(=O)(=O)N(C)C[C@@H]1OCCCC[C@H](C)Oc2ccc(NC(=O)NC3CCCCC3)cc2C(=O)N([C@@H](C)CO)C[C@H]1C | 17 | -4[16.7 µM]
C[C@@H]1CN([C@H](C)CO)C(=O)Cc2cc(NC(=O)CCCCCC(=O)Nc3ccccc3N)ccc2O[C@@H]1CN(C)S(=O)(=O)c1cccs1 | 2 | 1[16.7 µM]

Arranged by value in Yeast UUG start (low to high): 4 from the list above.
| smiles | Yeast UUG start | HIV Env fusion |
| --- | --- | --- |
| CC(C)C#Cc1cnc2c(c1)C(=O)N([C@H](C)CO)C[C@H](C)[C@H](CN(C)Cc1ccccn1)O2 | -6 | -3[16.7 µM] |
| C[C@@H]1CN([C@H](C)CO)C(=O)Cc2cc(NC(=O)CCCCCC(=O)Nc3ccccc3N)ccc2O[C@@H]1CN(C)S(=O)(=O)c1cccs1 | 2 | 1[16.7 µM] |
| C/C=C/c1ccc2c(c1)O[C@H](CN(C)C(=O)c1ccc(F)cc1)[C@H](C)CN([C@@H](C)CO)S2(=O)=O | 15 | -16[16.7 µM] |
| CCCNC(=O)N1[C@H](C#N)[C@@H](c2ccc(C3=CCCC3)cc2)[C@H]1CO | 52 | 5[16.7 µM] |

Retrieved by structure from the entries so far:
SMILES | Yeast UUG start | HIV Env fusion
C[C@@H](O)C#Cc1cnc2c(c1)C(=O)N([C@@H](C)CO)C[C@H](C)[C@H](CN(C)C(=O)CC1CC1)O2 | -3 | -8[16.7 µM]
C/C=C/c1ccc2c(c1)O[C@H](CN(C)C(=O)c1ccc(F)cc1)[C@H](C)CN([C@@H](C)CO)S2(=O)=O | 15 | -16[16.7 µM]

More results
SMILES | Yeast UUG start | HIV Env fusion
N#C[C@@H]1[C@H](c2ccc(C3=CCCC3)cc2)[C@H](CO)N1S(=O)(=O)c1ccccc1 | 11 | -29[16.7 µM]
O=C(Nc1ccc2c(c1)[C@@H]1C[C@@H](CC(=O)N3CCc4ccccc4C3)O[C@H](CO)[C@@H]1O2)C1CCC1 | -6 | -38[16.7 µM]
C[C@H]1CN([C@@H](C)CO)C(=O)c2cccc(NS(=O)(=O)c3ccc(F)cc3)c2O[C@H]1CN(C)C(=O)Nc1ccc(F)cc1 | 4 | -21[16.7 µM]
CNC[C@@H]1OCCCC[C@@H](C)Oc2ccc(NC(=O)c3ccncc3)cc2C(=O)N([C@H](C)CO)C[C@@H]1C | -4 | 6[16.7 µM]
Cc1ccccc1S(=O)(=O)NCC[C@H]1CC[C@@H](NC(=O)C2CCCC2)[C@@H](CO)O1 | -1 | -10[16.7 µM]
C[C@@H]1CN([C@H](C)CO)C(=O)c2cc(NC(=O)Nc3ccccc3)ccc2O[C@H]1CN(C)C(=O)Nc1cccc2ccccc12 | 7 | -14[16.7 µM]
CC(=O)N(C)C[C@H]1Oc2ncc(C#CCc3ccccc3)cc2C(=O)N([C@@H](C)CO)C[C@H]1C | 13 | 7[16.7 µM]
O=C(Nc1ccc2c(c1)[C@H]1C[C@@H](CC(=O)N3CCOCC3)O[C@@H](CO)[C@H]1O2)NC1CCCCC1 | -1 | 5[16.7 µM]
C[C@@H]1CCCCO[C@@H](CN(C)C(=O)c2ccncc2)[C@@H](C)CN([C@@H](C)CO)C(=O)c2cc(NS(=O)(=O)c3ccc(Cl)cc3)ccc2O1 | 8 | -25[16.7 µM]
C[C@@H]1CN([C@@H](C)CO)C(=O)c2cc(NC(=O)Cc3ccccc3)ccc2O[C@@H]1CN(C)S(=O)(=O)c1ccc(Cl)cc1 | 8 | -17[16.7 µM]
COc1ccccc1C#Cc1cnc2c(c1)C(=O)N([C@@H](C)CO)C[C@@H](C)[C@@H](CN(C)C(=O)CN(C)C)O2 | -6 | 6[16.7 µM]
C[C@@H]1CN([C@H](C)CO)C(=O)c2cccc(NS(=O)(=O)c3ccccc3)c2O[C@@H]1CN(C)S(=O)(=O)c1cn(C)cn1 | -15 | 10[16.7 µM]
C[C@@H]1CN([C@H](C)CO)C(=O)c2cc(C#CCc3ccccc3)cnc2O[C@@H]1CN(C)C(=O)C1CCCCC1 | -2 | 23[16.7 µM]
CCC(=O)Nc1ccc2c(c1)OC[C@@H](C)N(C(=O)c1ccncc1)C[C@H](C)[C@@H](OC)CN(C)C2=O | -3 | -7[16.7 µM]
C[C@@H]1CCCCO[C@@H](CN(C)C(=O)Nc2ccc3c(c2)OCO3)[C@H](C)CN([C@@H](C)CO)C(=O)c2cc(NC(=O)Nc3ccc(C(F)(F)F)cc3)ccc2O1 | -15 | 22[16.7 µM]
CC(=O)N[C@@H]1CC[C@@H](CC(=O)NCC2CCCCC2)O[C@H]1CO | -34 | -4[16.7 µM]
C[C@H]1CN([C@@H](C)CO)S(=O)(=O)c2ccc(-c3cccnc3)cc2O[C@H]1CN(C)Cc1ccncc1 | -20 | 9[16.7 µM]
CC(C)C#Cc1ccc2c(c1)O[C@H](CN(C)C(=O)Cc1ccccn1)[C@H](C)CN([C@H](C)CO)S2(=O)=O | 42 | -9[16.7 µM]
COc1ccc(S(=O)(=O)Nc2ccc3c(c2)C(=O)N([C@@H](C)CO)C[C@@H](C)[C@@H](CN(C)C(=O)c2ccccc2)OCCCC[C@@H](C)O3)cc1 | 14 | -17[16.7 µM]
COc1cccc(S(=O)(=O)N(C)C[C@H]2Oc3ncc(C#CCC(C)C)cc3C(=O)N([C@@H](C)CO)C[C@H]2C)c1 | 7 | -27[16.7 µM]
COC(=O)C[C@@H]1CC[C@@H](NC(=O)c2ccccc2)[C@H](CO)O1 | -15 | 0[16.7 µM]
C[C@@H]1CN([C@H](C)CO)C(=O)Cc2cc(NS(=O)(=O)c3cccs3)ccc2O[C@H]1CN(C)Cc1ccccc1 | -8 | -4[16.7 µM]
CCCN1C[C@H](C)[C@@H](OC)CN(C)C(=O)c2cc(NC(=O)c3ccccc3)ccc2OC[C@@H]1C | -3 | 10[16.7 µM]
COc1ccc(NC(=O)Nc2cccc3c2O[C@H](CN(C)C(=O)Nc2ccc(C(F)(F)F)cc2)[C@H](C)CN([C@H](C)CO)C3=O)cc1 | -3 | -122[16.7 µM]
Cc1noc(C)c1S(=O)(=O)Nc1ccc2c(c1)C(=O)N([C@@H](C)CO)C[C@H](C)[C@@H](CN(C)C(=O)Nc1ccccc1)OCCCC[C@H](C)O2 | -3 | -15[16.7 µM]

The listing continues:
SMILES | Yeast UUG start | HIV Env fusion
C[C@@H]1CCCCO[C@@H](CN(C)C(=O)Nc2ccc(F)cc2)[C@H](C)CN([C@H](C)CO)C(=O)c2cc(NC(=O)Nc3ccccc3)ccc2O1 | 3 | -30[16.7 µM]
C/C=C/c1ccc([C@@H]2[C@H](C#N)N(C(=O)NC3CCCC3)[C@H]2CO)cc1 | -4 | 7[16.7 µM]
COc1ccccc1S(=O)(=O)N[C@@H]1C=C[C@@H](CC(=O)N2CCOCC2)O[C@@H]1CO | -15 | 10[16.7 µM]
C[C@@H]1CN([C@@H](C)CO)C(=O)c2cccc(NC(=O)c3cnccn3)c2O[C@H]1CN(C)C(=O)Nc1cccc2ccccc12 | -5 | 27[16.7 µM]
COCC(=O)Nc1ccc2c(c1)[C@H]1C[C@H](CC(=O)NCc3ccc(-c4ccccc4)cc3)O[C@H](CO)[C@H]1O2 | 5 | 3[16.7 µM]
CO[C@@H]1CN(C)C(=O)c2ccc(NS(C)(=O)=O)cc2OC[C@H](C)N(C(=O)CN(C)C)C[C@H]1C | -11 | 10[16.7 µM]
C[C@H](CO)N1C[C@H](C)[C@@H](CN(C)CC2CCCCC2)Oc2ccc(NC(=O)Nc3ccc4c(c3)OCO4)cc2CC1=O | 8 | 25[16.7 µM]
C[C@@H]1CN([C@H](C)CO)C(=O)c2cc(NC(=O)Nc3ccc4c(c3)OCO4)ccc2O[C@@H](C)CCCCO[C@H]1CN(C)C(=O)C1CCCCC1 | 2 | 37[16.7 µM]
CC(C)NC(=O)Nc1ccc2c(c1)C(=O)N([C@H](C)CO)C[C@@H](C)[C@@H](CN(C)Cc1ccc(C(F)(F)F)cc1)OCCCC[C@@H](C)O2 | 4 | 35[16.7 µM]
C[C@H]1CN([C@@H](C)CO)C(=O)c2cc(Br)cnc2O[C@@H]1CN(C)Cc1ccncc1 | -13 | -24[16.7 µM]
O=C(C[C@H]1C=C[C@@H](NC(=O)Nc2ccc(C(F)(F)F)cc2)[C@H](CO)O1)NCCN1CCCC1 | -1 | 1[16.7 µM]
C[C@@H]1CN([C@@H](C)CO)C(=O)c2cccc(NC(=O)C3CCCCC3)c2O[C@H]1CN(C)C(=O)NC1CCCCC1 | 6 | 16[16.7 µM]
C[C@H]1CN([C@@H](C)CO)C(=O)c2cc(C#CC3(O)CCCC3)cnc2O[C@@H]1CN(C)Cc1cccnc1 | -5 | -16[16.7 µM]
C[C@H](CO)N1C[C@H](C)[C@H](CN(C)CC2CCCCC2)OCCCC[C@H](C)Oc2ccc(NC(=O)C3CCCCC3)cc2C1=O | 7 | -3[16.7 µM]
Cc1ccc(-c2cnc3c(c2)C(=O)N([C@H](C)CO)C[C@H](C)[C@@H](CN(C)C(=O)c2ccc(F)cc2)O3)cc1 | 8 | -19[16.7 µM]
COc1ccc(S(=O)(=O)Nc2cccc3c2O[C@H](CN(C)Cc2ccc(C(F)(F)F)cc2)[C@H](C)CN([C@H](C)CO)C3=O)cc1 | 1 | 20[16.7 µM]
CN(C)CC(=O)N[C@@H]1CC[C@@H](CCn2cc(C3CCCCC3)nn2)O[C@H]1CO | 4 | 6[16.7 µM]

A portion of the library, so the mix of outcomes need not match the whole.
